Screening results (PubChem BioAssay)
KCNQ2 block: KCNQ2 channel blockers in CHO-K1 cells – cell-based, FluxOR thallium flux, B-score, primary screen (AID 2156); 20 min; active compounds read low; only compounds with negative scores are shown here; some inactives read as strong as hits; 310,000 compounds, 1.1% hits; O88943; B-score at 10 µM;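 active = fluorescence ratio B-score at most minus 3 library SDs, with starting brightness B-score within 2 library SDs, cut at about -5.5 in these data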
Target sequence (O88943 whole entry, looked up): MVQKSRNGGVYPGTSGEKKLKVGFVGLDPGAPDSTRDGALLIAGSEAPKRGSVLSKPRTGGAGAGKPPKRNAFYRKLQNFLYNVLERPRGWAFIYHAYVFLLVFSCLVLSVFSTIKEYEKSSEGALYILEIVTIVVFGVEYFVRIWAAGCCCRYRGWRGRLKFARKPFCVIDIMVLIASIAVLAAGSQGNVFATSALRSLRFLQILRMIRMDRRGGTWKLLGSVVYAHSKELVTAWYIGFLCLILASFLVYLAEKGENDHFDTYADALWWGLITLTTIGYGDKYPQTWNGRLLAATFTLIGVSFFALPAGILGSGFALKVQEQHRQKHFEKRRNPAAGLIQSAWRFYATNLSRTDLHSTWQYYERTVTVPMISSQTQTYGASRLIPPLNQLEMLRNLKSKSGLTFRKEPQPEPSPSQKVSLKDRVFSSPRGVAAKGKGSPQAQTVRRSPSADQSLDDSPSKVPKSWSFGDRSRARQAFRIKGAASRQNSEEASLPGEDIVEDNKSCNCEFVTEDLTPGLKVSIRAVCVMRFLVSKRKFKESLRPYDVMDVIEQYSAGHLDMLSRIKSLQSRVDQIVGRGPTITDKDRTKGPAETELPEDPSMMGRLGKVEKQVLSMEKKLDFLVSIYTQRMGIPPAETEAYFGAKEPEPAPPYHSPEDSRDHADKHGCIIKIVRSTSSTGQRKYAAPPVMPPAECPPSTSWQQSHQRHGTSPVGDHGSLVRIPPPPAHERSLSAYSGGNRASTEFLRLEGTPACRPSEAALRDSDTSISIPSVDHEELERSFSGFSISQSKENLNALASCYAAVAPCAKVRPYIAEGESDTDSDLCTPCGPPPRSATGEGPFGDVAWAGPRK
KCNQ2 block baseline: recorded beside KCNQ2 block, whose call it bears; B-score; measured here: initial fluorescence intensity artifact check;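 brightness before thallium and not channel activity; 0 = typical well and far values either way flag optical interference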
* = called active by the depositor; i = inactive.

| compound | KCNQ2 block | KCNQ2 block baseline |
| --- | --- | --- |
| Cc1noc(NS(=O)(=O)c2ccc(NC(=O)COc3ccc(Cl)cc3Cl)cc2)c1C | i | -0.09 |
| Cc1nc2nc[nH]n2c(=O)c1CC(=O)O | i | 0.13 |
| C=CC[n+]1c(-c2ccc(Cl)cc2Cl)csc1Nc1c(C)n(C)n(-c2ccccc2)c1=O | i | -0.17 |
| Cc1ccc(NC2=C(Cl)C(=O)OC2OC(=O)c2ccco2)cc1C (stereo not given) | i | 0.84 |
| COc1ccc(/C=C/C(=O)NC(=S)N2CCN(C)CC2)cc1 | i | 0.43 |
| CCCCn1c(=O)n(C)c(=O)c2c3c(sc21)COC(C)(C)C3 | i | 1.29 |
| CCOc1ccc(N(CC(=O)N2CCc3ccccc32)S(=O)(=O)c2c(C)noc2C)cc1 | i | -1.08 |
| COc1ccc(N(CC(=O)NCc2ccco2)S(C)(=O)=O)cc1OC | i | -1.53 |
| O=C(NCCc1nc(-c2ccccc2Cl)no1)C1CCCCC1 | i | 3.65 |
| Cn1nccc1C(=O)Nc1ccn(C23CC4CC(CC(C4)C2)C3)n1 | i | 1.23 |
| CCCCn1c(SCC(=O)NC2CC(C)(C)NC(C)(C)C2)nc2cc(S(N)(=O)=O)ccc21 | i | 0.09 |
| c1ccc(C(c2nnnn2Cc2ccco2)N2CCN(C3CCCC3)CC2)cc1 (stereo not given) | i | 0.66 |
| COc1cc(-c2nc3ccccc3s2)ccc1O | i | -2.4 |
| COc1ccc2nc(SCC(=O)N(C)C3CCCCC3)c(C#N)cc2c1 | i | -0.01 |
| CCCS(=O)(=O)c1ncc(Cl)c(C(=O)Nc2ccc(S(=O)(=O)Nc3ncccn3)cc2)n1 | i | -0.18 |
| Cc1cc(NC(=O)C(C)SCC(=O)N(C)CC(=O)Nc2ccccc2Br)no1 (stereo not given) | i | -1.78 |
| C=CCC(COCc1ccccc1)NS(=O)(=O)c1ccccc1Br (stereo not given) | i | 1.97 |
| O=c1c2ccccc2nnn1CSc1ccc2ccccc2n1 | i | 0.83 |
| CC(=O)N1c2ccc(S(=O)(=O)N3CCCC3C(=O)Nc3cccc(F)c3)cc2CC1C (stereo not given) | i | 0.27 |
| Cc1cccn2c(=O)c(/C=N/O)c(Nc3ccccc3F)nc12 | i | -0.22 |
| CCOC(=O)N1CCN(C(=O)c2ccc(CN(c3ccccc3)S(C)(=O)=O)cc2)CC1 | i | 0.75 |
| O=C(Oc1cccc(C(=S)N2CCOCC2)c1)c1cccc(Cl)c1 | i | -0.49 |
| CC1(C)CCC[C@]2(C)C(CS(=O)c3ccccc3)=C(C=O)CC[C@@H]12 (stereo not given in full) | i | -0.64 |
| Cn1c(C(C)(O)C(O)c2ccccc2)nc2ccccc21 (stereo not given) | i | 0.82 |
| O=[N+]([O-])c1ccc(N2N=C(c3ccccc3)CC2c2ccccc2O)cc1 (stereo not given) | i | 0.67 |
| CCCC(c1nnnn1CCc1ccccc1)N1CCN(C(=O)c2ccco2)CC1 (stereo not given) | i | 0.18 |
| CC(C)(C)c1ccc(O)c(N=Cc2cc(Br)ccc2O)c1 | i | -0.77 |
| CCc1n[nH]c(=S)n1/N=C/c1ccc(N(C)c2ccccc2)cc1 | i | 0.23 |
| O=C(CN1CCN(c2ccc(O)cc2)CC1)Nc1ccc(SC(F)F)cc1 | i | -2.81 |
| C=CCOC(=O)C1=C(C)NC(=S)C(C#N)(CC=C)C1c1ccccc1Cl (stereo not given) | i | 0.08 |

Ordered by length of the SMILES (ascending): five of the compounds above
| compound | KCNQ2 block | KCNQ2 block baseline |
| --- | --- | --- |
| O=c1c2ccccc2nnn1CSc1ccc2ccccc2n1 | i | 0.83 |
| Cn1c(C(C)(O)C(O)c2ccccc2)nc2ccccc21 (stereo not given) | i | 0.82 |
| CC(C)(C)c1ccc(O)c(N=Cc2cc(Br)ccc2O)c1 | i | -0.77 |
| O=C(Oc1cccc(C(=S)N2CCOCC2)c1)c1cccc(Cl)c1 | i | -0.49 |
| CCOC(=O)N1CCN(C(=O)c2ccc(CN(c3ccccc3)S(C)(=O)=O)cc2)CC1 | i | 0.75 |

The list continues:
| compound | KCNQ2 block | KCNQ2 block baseline |
| --- | --- | --- |
| CCOC(=O)Cc1csc(NC(=O)c2c(C)noc2C)n1 | i | -0.01 |
| COC(=O)C1=C(C)NC(=S)NC1c1ccc(-c2cc(Cl)ccc2Cl)o1 (stereo not given) | i | -1.02 |
| O=C(NCc1ccccn1)c1ccc([N+](=O)[O-])cc1 | i | -1.51 |
| COc1ccc(OCc2cc(C(=O)NC(C)c3csc(C)n3)no2)c(Cl)c1 (stereo not given) | i | -1.1 |
| c1cncc(-c2nc(NCCCn3ccnc3)c3ccccc3n2)c1 | i | 8.29 |
| Cc1ccc(C2Oc3ccccc3C3=C2C(c2cccs2)n2ncnc2N3)cc1 (stereo not given) | i | 0.06 |
| CN(C)N1C(N)=C(C#N)C(c2cccc(Cl)c2)C2=C1CCCC2=O (stereo not given) | i | 0.87 |
| O=C(CSc1nccc(=O)[nH]1)N1CCc2ccccc2C1 | i | -2.68 |
| CCOC(=O)C(C)Oc1nc(Oc2ccccc2)nc(N(C)C)n1 (stereo not given) | i | 0.28 |
| Cc1cc(OCC(=O)Nc2ccc(S(=O)(=O)NC3=NCCCCC3)cc2)c(C(C)C)cc1Cl | i | 0.26 |
| COCCN(C(=O)COC(=O)Cc1coc2cc3c(cc12)CCC3)c1c(N)n(Cc2ccccc2)c(=O)[nH]c1=O | i | -0.74 |
| CC1CCCCN1C(=O)CSc1nc(C2CC2)nc2ccccc12 (stereo not given) | i | 0.43 |
| CCCCn1c(N)c(N(CC(C)C)C(=O)CN(C)S(=O)(=O)c2ccc(F)cc2)c(=O)[nH]c1=O | i | 2.14 |
| O=C(COc1ccccc1)NCC(=O)Nc1ccc(S(=O)(=O)NCc2ccco2)cc1 | i | 0.52 |
| O=C(c1cc(COc2cccc(C(F)(F)F)c2)on1)N1CCSCC1 | i | 0.14 |
| COc1ccccc1C1C(C(=O)c2cc3ccccc3o2)=C(O)C(=O)N1c1cc(C)on1 (stereo not given) | i | 1.27 |
| COc1cccc(CNc2nc3nc(C)cc(C)n3n2)c1 | i | -0.25 |
| C/C(=N\NC(=O)c1cc(C)nc2ccccc12)c1ccco1 | i | 3.19 |
| O=C(Nc1ccccc1)c1nnsc1S(=O)(=O)c1ccc(Cl)cc1 | i | 0.98 |
| Cc1ccccc1OCC(=O)Nc1cccc(NC(=O)c2ccco2)c1 | i | -0.15 |
| COc1ccc2cc(C(=O)NC3CCCCC3)c(=O)oc2c1 | i | 0.22 |
| COc1cc2cc(C(=O)N(C)C3CCS(=O)(=O)C3)[nH]c2cc1OC (stereo not given) | i | 0.62 |
| Cn1c(=O)c2[nH]c(-c3cccnc3)nc2n(C)c1=O | i | -0.1 |
| Cc1cc(C)c(C#N)c(N2CCN(Cc3ccc4c(c3)OCO4)CC2)n1 | i | 1.12 |
| COc1ccc(C)cc1N(C)C(=O)Cc1c(C(=O)O)n(C)c2ccccc12 | i | 1.02 |
| Cc1ccc(OCC(=O)N/N=C2\CCOc3c(C)cccc32)cc1 | -6.75* | 0.69* |
| COc1ccc(C)cc1NC(=O)CN1C(=O)COc2ccc(S(=O)(=O)N3CCOCC3)cc21 | i | -1.32 |
| CCN(C(=O)COC(=O)CNS(=O)(=O)c1ccccc1)c1ccccc1 | i | 4.04 |
| COc1ccccc1N1CCN(C(=O)c2c(-c3c(F)cccc3Cl)noc2C)CC1 | i | 0.11 |
| Cc1[nH]c2ccccc2c1C(=O)C(=O)N(C)C1CCCCC1 | i | 1.74 |
| O=C(N/N=C/c1ccccn1)c1c[nH]c2ccccc12 | i | -0.03 |
| COc1ccc(OC)c(NC(=O)N2CCCC(CNS(=O)(=O)c3cccs3)C2)c1 (stereo not given) | i | 0.11 |
| O=C(Nc1ncc2c(n1)-c1ccccc1CC2)c1ccc(Cl)cc1 | i | -0.11 |
| C=CCn1c(SCC(=O)c2cc(C)n(CCOC)c2C)nc2sc(C)c(C)c2c1=O | i | 0.91 |
| Cc1ccccc1CNC(=O)C1CCC(=O)N(Cc2cccc(F)c2)C1 (stereo not given) | -6.32* | 0.03* |
| CC1CCC2(CC1)NC(=O)N(CC(=O)N1CCc3ccccc3C1)C2=O (stereo not given) | i | -0.65 |
| Cc1ccc(NC(=O)Cn2nc(C)c([N+](=O)[O-])c2C)cc1Cl | i | 0.49 |
| CCOc1ccccc1/C=C/c1onc(C)c1S(=O)(=O)N1CCC(C(=O)N(CC)CC)CC1 | i | 1.31 |
| CCOc1ccc(OCCC(=O)OCC(=O)Nc2ccc3c(c2)OCO3)cc1 | i | -0.41 |
| O=[N+]([O-])c1cnccc1Nc1ccc(F)cc1 | i | 0.47 |
| CCOc1ccccc1-n1c(=S)sc2c(=O)n(-c3ccc(C)cc3)c(=S)[nH]c21 | i | 3.47 |
| COc1ccc(CC(NC(=O)c2ccccc2)C(=O)NCC(=O)O)cc1 (stereo not given) | i | 0.07 |
| CC(=O)Nc1ccc(C(=O)Nc2ccc(S(=O)(=O)N3CCCC3)cc2)cc1 | i | 1.8 |
| COc1ccc(C2=C(Nc3ccc(F)cc3)c3ccccc3C2=O)cc1 | i | 0.75 |
| Cc1cc(C)nc(SCc2ccc(C(=O)NN=C3CCCC3)cc2)n1 | i | -0.5 |

Not a retest: entries from further up.
| compound | KCNQ2 block | KCNQ2 block baseline |
| --- | --- | --- |
| COc1ccc(C2=C(Nc3ccc(F)cc3)c3ccccc3C2=O)cc1 | i | 0.75 |
| Cc1cc(C)nc(SCc2ccc(C(=O)NN=C3CCCC3)cc2)n1 | i | -0.5 |

(next part)
| compound | KCNQ2 block | KCNQ2 block baseline |
| --- | --- | --- |
| O=S(=O)(NC1CC1)c1ccc(S(=O)(=O)N2CCCC3(CCCCC3)C2)cc1 | i | -0.71 |
| CC(=O)Nc1ccc(OCC(=O)N2CCc3ccccc3C2)cc1 | i | -1.05 |
| CCC(=O)Nc1ccc2c(c1)N(C(C)=O)c1ccccc1CC2 | i | 0.11 |
| O=C1Cc2ccccc2C(c2ccc(Br)cc2)N1 (stereo not given) | -6.27* | 0.62* |
| CC(C)c1ccc(NC(=O)C(c2ccccc2)N(C)C(=O)CCc2c[nH]c3ccccc23)cc1 (stereo not given) | i | 0.21 |
| CCCCC(=O)Nc1ccc2oc(-c3ccncc3)nc2c1 | i | 0.31 |
| COCCn1nnnc1C(CC(C)C)N1CCN(c2cccc(OC)c2)CC1 (stereo not given) | i | -0.73 |
| Nn1cc(-c2ccccc2)nc1SCC(=O)Nc1ccc2c(c1)OCO2 | i | 2.11 |
| Cc1cc(C)c(S(=O)(=O)N2CCCc3ccccc32)c(C)c1 | i | -0.26 |
| CC(C)CCNC(=O)C(=O)Nc1cc2c3c(c1)CC(=O)N3CCC2 | i | -1.18 |
| CC(C)(C)Nc1c([N+](=O)[O-])c(=O)sc2ccccc12 | i | 0.4 |
| Cc1ccc(OCc2cc(C(=O)N(C)CCc3ccccc3)no2)cc1C | i | 1.18 |
| Cc1cc(C(=O)NNC(=S)NC(=O)/C=C/c2ccccc2Cl)n[nH]1 | i | 1.41 |
| N#Cc1ccccc1NC(=O)CSc1nnc(-c2ccc(F)cc2)n1-c1ccccc1 | i | -0.06 |
| CCOC(=O)c1c(C)[nH]c(C(=O)COC(=O)CN2C(=O)C3CCCCC3C2=O)c1C (stereo not given) | i | 0.8 |
| COc1cc(C#N)ccc1OCC(=O)N1CCc2ccccc2C1 | i | 0.08 |
| COc1ccc(CNC(=O)C2CCN(S(=O)(=O)c3ccc4c(c3)CC(C)N4C(=O)C3CC3)CC2)cc1 (stereo not given) | i | -0.02 |
| COc1ccc(-c2nn(-c3ccccc3)cc2/C=N/n2cnnc2)cc1OC | i | 0.47 |
| COc1cc(SC)ccc1C(=O)Nc1cccc(C)n1 | i | 0.26 |
| Cc1nn(C)c(C)c1S(=O)(=O)N1CCC(C(=O)NCCC2=CCCCC2)CC1 | i | 0.5 |
| CCCc1nc2sc3c(c2c(=O)n1NC(=O)CCC(=O)O)CCCC3 | i | -0.13 |
| CCOC(=O)CSC1=C(C#N)C(C)C2=C(CCCC2=O)N1 (stereo not given) | i | -0.16 |
| O=C(COC(=O)CC1c2ccccc2CCN1S(=O)(=O)c1ccc(F)cc1)Nc1ccccc1 (stereo not given) | i | 0.49 |
| C/C(=N\NC(=O)c1cc(C(C)C)[nH]n1)c1ccco1 | i | 5 |
| O=C(CCc1ccccc1)Nc1ccc(N2CCOCC2)cc1 | i | -0.28 |
| CC(C)CCN1CCN(Cc2ccc(N3CCNC3=O)cc2)CC1CCO (stereo not given) | i | -0.74 |
| CNc1nc(N/N=C/c2cc3c(cc2[N+](=O)[O-])OCO3)nc(Nc2ccccc2)n1 | i | -1.24 |
| COC(=O)c1ccccc1-c1ccc(C(c2c(C)[nH][nH]c2=O)c2c(C)[nH][nH]c2=O)o1 | i | -1.14 |
| CC(C)N(CCNC(=O)c1ccc(NC2=NC3CS(=O)(=O)CC3S2)cc1)Cc1ccco1 (stereo not given) | i | -0.73 |
| O=C1CCCCC1S(=O)(=O)c1ccccc1 (stereo not given) | i | 1.08 |

One compound at a time, as listed above. Screens in order: KCNQ2 block	KCNQ2 block baseline
Listed for O=C1CCCCC1S(=O)(=O)c1ccccc1 (stereo not given) : i	1.08
Listed for COc1ccc(CNC(=O)C2CCN(S(=O)(=O)c3ccc4c(c3)CC(C)N4C(=O)C3CC3)CC2)cc1 (stereo not given) : i	-0.02

(cont.)
| compound | KCNQ2 block | KCNQ2 block baseline |
| --- | --- | --- |
| Cc1cc(O)c(-c2n[nH]c3c2C(c2cccc(O)c2)N(Cc2cccnc2)C3=O)cc1Cl (stereo not given) | i | 0.03 |
| CN(c1ccccc1)S(=O)(=O)c1ccc(NC(=O)c2ccc(F)cc2)cc1 | i | 0.18 |
| CN(C)c1ccc(NC(=O)C2CCCN(S(=O)(=O)c3ccccc3)C2)cc1 (stereo not given) | i | -0.39 |
| Cc1[nH]nc(SCC(=O)N2CCOCC2)c1[N+](=O)[O-] | i | -0.64 |
| CSc1ccc(C(=O)C2CCCN(C(=O)c3ccsc3)C2)cc1 (stereo not given) | i | 3.2 |
| Cc1nc2ccccc2[nH]c1=O | i | -1.26 |

Only part of the results is shown; the hit share may differ from the screen's.
